Bioassay records as filed in PubChem BioAssay.
eIF4H FP inh = inhibitors of RNA binding by human eIF4H; Q15056; inhibition, % at 35 µM; hit rate 0.94% among 290,000; eIF4H fluorescence polarization binding assay; AID 2012;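 active = 50% or more with normal probe brightness, or confirmed in later tests; inconclusive = above 50% with abnormal brightness, or retests that disagree; inactive = below 50% or failed in later tests; about a fifth of its hits are not listed in these tables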;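 also: calls also rest on retests at 20 µM and on dose response follow-up; 0% = protein and probe with vehicle and 100% = probe without protein; strong numbers were not always called active; many hits fall short of the cut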
PABP FP inh = blocks human PABP binding to poly(A) RNA; fluorescence polarization; inhibition, % at 35 µM; hit rate 1% among 290,000;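 active = 50% or more with normal probe brightness, or confirmed in later tests; inconclusive = above 50% with abnormal brightness, or retests that disagree; inactive = below 50% or failed in later tests; about a fifth of its hits are not listed in these tables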;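 also: calls also rest on retests at 20 µM and on dose response follow-up; controls were probe without protein and protein plus probe with vehicle; some compounds called inactive have numbers as strong as hits; many hits fall short of the cut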
Target sequence (P11940 whole entry, looked up): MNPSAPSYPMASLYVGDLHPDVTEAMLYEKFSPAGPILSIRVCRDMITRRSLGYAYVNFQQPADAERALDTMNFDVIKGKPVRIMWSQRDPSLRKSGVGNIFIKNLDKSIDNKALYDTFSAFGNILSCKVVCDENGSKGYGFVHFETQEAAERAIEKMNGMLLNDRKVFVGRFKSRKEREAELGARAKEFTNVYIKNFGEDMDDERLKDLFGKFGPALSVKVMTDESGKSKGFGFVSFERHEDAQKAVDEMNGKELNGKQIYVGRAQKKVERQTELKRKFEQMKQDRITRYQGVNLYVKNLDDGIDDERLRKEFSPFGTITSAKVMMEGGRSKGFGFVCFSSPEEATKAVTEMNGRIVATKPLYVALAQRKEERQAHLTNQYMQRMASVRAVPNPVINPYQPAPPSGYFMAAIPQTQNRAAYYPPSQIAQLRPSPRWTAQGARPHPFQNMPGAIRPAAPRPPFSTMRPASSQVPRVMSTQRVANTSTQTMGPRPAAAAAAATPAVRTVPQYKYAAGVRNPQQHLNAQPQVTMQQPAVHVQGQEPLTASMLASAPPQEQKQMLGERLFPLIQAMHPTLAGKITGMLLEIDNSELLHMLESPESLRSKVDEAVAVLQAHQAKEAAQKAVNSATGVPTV
CSC inhib = cancer stem cell inhibition; cancer stem cell-like cells viability, luminescence; inhibition, % at 7.5 µM; hit rate 1.1% among 300,000;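 active = mean at 75% or more and at least half the replicates too; inconclusive = mean and replicates disagree; tested in HMLE shEcad cells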;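 also: 0% = median of negative and 100% = median of positive control wells; the first replicate is given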
UUG fidelity = modulators of start codon recognition fidelity in yeast; S. cerevisiae UUG-firefly luciferase reporter, luminescence/redox ratio; activity score, % at 18.7 µM; hit rate 0.13% among 350,000;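 active = replicate mean at a twofold rise or more, about +100% in these data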;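 also: firefly luciferase made from a UUG start codon reports start codon fidelity; reporter light over untreated wells divided by growth signal over untreated wells; some hits fall short of that in this replicate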
MT1-MMP act inh = inhibitors of human MT1-MMP activation; AID 651647; hit rate 0.061% among 360,000; HT1080 RFP-PRO-GFP cells, GFP/RFP ratio fluorescence, overnight; percent of plate control window, DMSO zero; GFP/RFP ratio change, % at 20 µM; P50281;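 active = GFP/RFP ratio change of at least 30% with cell ATP level not reduced by more than half and red fluorescence within 50% of control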; also: strong numbers were not always called active
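Compound: 20 µM single dose, 1% DMSO / System: HT1080 RFP-PRO-GFP cells / Controls: DMSO and RFP-L50D-GFP cell wells / Read-out basis: GFP/RFP fluorescence ratio / Schedule: overnight compound exposure at 37 °C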
Rce1 inh = yeast Ras-converting enzyme inhibition. Q03530. yeast membranes, quenched prenylated peptide cleavage fluorescence. calls only. hit rate 0.27% among 290,000. AID 2563;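 active = fall in fluorescence gain of 50% or more versus controls, with final raw signal at or below 3038400; inconclusive = same 50% fall but final raw signal above 3038400; inactive = fall in fluorescence gain under 50%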;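 also: plate controls were neutral control wells for no effect and wells lacking membranes for full effect; tested at 10 µM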
Target sequence (Q03530 whole entry, looked up): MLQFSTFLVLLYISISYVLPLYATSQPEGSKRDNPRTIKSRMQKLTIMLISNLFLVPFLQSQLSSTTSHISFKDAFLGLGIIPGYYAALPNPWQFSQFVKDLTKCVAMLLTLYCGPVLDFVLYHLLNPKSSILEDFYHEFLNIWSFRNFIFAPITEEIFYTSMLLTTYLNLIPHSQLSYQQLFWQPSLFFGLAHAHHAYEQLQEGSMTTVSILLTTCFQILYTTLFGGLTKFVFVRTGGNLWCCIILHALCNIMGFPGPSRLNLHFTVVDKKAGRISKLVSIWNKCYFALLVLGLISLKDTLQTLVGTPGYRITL
HIV Env fusion = HIV envelope-mediated fusion inhibition. HeLa-JRFL Env/CEM21 cell fusion, luciferase. inhibition, % at 12.3 µM. hit rate 1.1% among 360,000;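 active = mean replicate inhibition score of at least 50 and every replicate individually at or above 50; inconclusive = only one of the two criteria met; inactive = mean below 50 and not all replicates reaching 50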;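 also: 0% = plate neutral controls and 100% = maraviroc near 300 nM; one replicate is shown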
eIF4H FP inh retest = further read-out of eIF4H FP inh, marked with its call; inhibition, %; compound at 20 µM; confirmation average;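 mean of two retest wells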
PABP FP inh retest = also measured in PABP FP inh; calls as there; inhibition, %; compound at 20 µM; confirmation repeats;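 mean of two retest wells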
MT1-MMP act inh RFP = second read-out of MT1-MMP act inh, no call of its own (marks repeat the call); RFP signal change, %; measured here: RFP expression control read;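 0 = vehicle wells; hits needed this value within 50% of zero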
Active calls of the source: *; i = inactive; ? = inconclusive; / = not tested or not shown; & = joins results of further samples. The list is partial, so the mix of outcomes need not match the whole.

SMILES	eIF4H FP inh	PABP FP inh	CSC inhib	UUG fidelity	MT1-MMP act inh	MT1-MMP act inh RFP	Rce1 inh	HIV Env fusion	others
COc1cccc(OC)c1C(=O)N1CCN(Cc2ccc3c(c2)OCO3)CC1	-4.6	35.6	1.4	-8.4	-1.4	3.6	i	/
CCOC(=O)C1CCCN(S(=O)(=O)c2ccc3c4c2CC(=O)N4CC(C)S3)C1 (stereo not drawn)	-7.9	-11.9	21.4	-0.7	-0.8	-6.8	i	7.8
CCOC(=O)Cn1c(C)nc2c(C(=O)OCC)sc(C)c2c1=O	4.8	-13.1	-3.0	7.6	-3.2	2.5	i	/
O=C(O)CN1C(=O)C(=O)N(Cc2c(F)cccc2Cl)C1=O	-8.3	4.0	12.9	3.5	0.0	1.2	i	-10.4
CCCc1c(C(=O)Nc2ccc(N3CCOCC3)cc2)cnn1-c1ccccc1	1.2	-5.0	31.4	/	-4.0	-0.8	i	2.2
CCCCNC(=O)COC(=O)c1ccc(SC)cc1OC	-2.7	-4.0	-15.9	/	0.4	2.9	i	0.7
O=C(O)c1cc(-c2ccncc2)nc2ccc(F)cc12	1.4	0.8	/	/	/	/	i	/
c1ccc(-c2ncc3ccccn23)cc1	5.3	5.4	-9.4	/	-4.9	-0.3	i	-3.3
Cc1cccc(NC(=O)CSc2nc3ccccc3c3nc(CCc4c(C)n[nH]c4C)nn23)c1	-5.6	5.7	45.6	-18.6	7.1	-2.5	i	-137.3
CCCCNC(=S)NNC(=O)c1csc(C(C)C)c1	-0.5	0.4	-7.9	-29.3	2.9	0.6	i	-64.2
COc1ccc(N2CCN(C(=O)CCCCCn3c(=S)[nH]c4cc5c(cc4c3=O)OCO5)CC2)cc1	-1.0	-2.2	-11.0	-26.0	2.3	0.1	i	/
CC(C)C(C)(C#N)NC(=O)CSc1nc2scc(-c3ccc(F)cc3)c2c(=O)n1Cc1ccccc1 (stereo not drawn)	-0.2	0.1	/	/	-1.0	-1.8	i	-8.7
CC(C)CN1C(=O)/C(=C(/C#N)C(=O)NC2CCCCC2)c2ccccc21	-7.2	4.2	-6.4	/	0.4	-10.8	i	23.9
CC(C)n1c(O)c(N=Nc2ccccn2)c2ccccc21	8.8	-6.4	8.8	/	2.8	7.4	i	-6.3
CCOc1ccc(NC(=O)CC(Cc2cc(C)cc(C)c2)C(=O)O)cc1 (stereo not drawn)	5.6	5.9	5.3	0.0	-6.6	0.1	i	14.9
CCOc1ccc(S(=O)(=O)Nc2cccnc2)cc1	-2.9	7.3	-5.6	-27.1	-1.9	-8.3	i	/
O=CNc1ccc(S(=O)(=O)NCc2ccccc2)cc1	-0.3	-1.2	-4.0	-23.2	-3.8	5.4	i	-13.8
COc1ccc2nc(SCC(=O)Nc3c(C)cc(C)cc3C)[nH]c2c1	-5.5	-0.1	/	-15.3	2.3	2.8	i	-100.2
Cc1ccc(OCCCC(=O)Nc2ccc(S(=O)(=O)Nc3ccccn3)cc2)cc1	-8.6	-3.0	-3.3	-10.0	-0.8	6.0	i	-4.1
COC1CCN(C(=O)CC2C(=O)NCCN2CC2CCCCC2)CC1 (stereo not drawn)	10.1	7.6	-6.3	/	-5.4	1.7	i	2.5
COc1ccccc1-c1ccc(SCc2ccc(C)cc2)nn1	-5.3	0.6	/	/	6.4	6.5	i	-21.1
CCN1CCN(c2ccc(S(=O)(=O)N3CCOCC3)cc2NC(=O)c2ccc(Cl)s2)CC1	/	/	-13.4	-26.5	-0.7	4.9	i	13.6
c1ccc2c(c1)CCN(c1nc3ccccc3n3cnnc13)C2	6.9	4.7	12.5	-10.6	-4.0	2.6	i	-6.5
CC(C)C[C@H](NC(=O)C1CCN(S(=O)(=O)c2ccccc2)CC1)C(=O)NCc1ccncc1	/	/	-7.2	4.1	4.1	5.8	i	-0.1
Cc1noc(NS(=O)(=O)c2ccc(NC(=O)CSc3nnc4c(n3)[nH]c3ccccc34)cc2)c1C	86.4	0.0	/	/	4.6	14.0	i	9.8	eIF4H FP inh retest=1.1;PABP FP inh retest=5.4

New compounds follow
SMILES	eIF4H FP inh	PABP FP inh	CSC inhib	UUG fidelity	MT1-MMP act inh	MT1-MMP act inh RFP	Rce1 inh	HIV Env fusion	others
CSC(=O)NC12CC3CC(CC(C)(C3)C1)C2	-5.3	1.7	-3.4	-21.5	3.3	1.1	i	27.4
Oc1cccc(/C=N/NC(=S)NCCN2CCOCC2)c1O	9.9	-7.6	37.5	/	3.2	-2.6	i	-11.6
C[C@@H]1CN([C@H](C)CO)C(=O)c2cc(C3=CCCCC3)cnc2O[C@@H]1CN(C)Cc1ccccc1C(=O)O	/	/	/	7.8&11.6&-5.2	-2.5	-0.4	/	-33.5
CCCn1nnnc1NCc1ccc(CC)cc1	-3.5	-7.9	-4.8	-17.7	-0.4	0.7	i	-97.3
CC[C@]1(C(=O)OC)[C@H]2C(=O)N(C)C(=O)[C@H]2[C@H]2CN=C(SCc3ccc(C)cc3)N21	/	/	/	-5.9	2.0	4.0	/	-2.4
COC(=O)c1sc2cc([N+](=O)[O-])cc(SCC(C)C)c2c1N	34.9	-22.6	13.4	/	-134.9	2.8	i	5.1
O=C(NCc1n[nH]c(=S)n1-c1ccc(Br)cc1)c1cccs1	-3.1	-1.1	-17.9	/	-3.3	2.5	i	4.2
O=C(Nc1ccc(O)cc1)C1CCCN1S(=O)(=O)c1ccc(F)cc1 (stereo not drawn)	-2.1	1.0	-8.2	-18.0	10.1	12.9	i	-125.4
CN(Cc1ccc2nsnc2c1)Cc1nc(Cc2cccc(F)c2)no1	0.3	-4.4	-4.6	/	-4.0	-2.7	i	-12.6
COc1cc2ccccc2cc1C(=O)OCC(=O)N(C)c1c(N)n(Cc2ccccc2)c(=O)[nH]c1=O	/	/	-8.3	-4.6	-4.4	-0.8	i	-19.2
CCOC(=O)/C=c1\s/c(=C\c2sccc2C)c(=O)n1CC(=O)NCc1ccc(C)cc1	69.8	51.4	13.9	/	/	/	i	-20.6	eIF4H FP inh retest=2.1;PABP FP inh retest=11.0
COc1ccc(OC)c(NC(=O)C2(C)CCN2Cc2cccc(OC)c2OC)c1 (stereo not drawn)	/	/	/	-10.1	-0.2	-4.4	/	18.6
COc1ccc(NC2CCCN(C(=O)CCC3=NNC(=O)CC3)C2)cc1 (stereo not drawn)	-13.0	-6.2	0.6	2.0	-2.0	3.8	i	0.1
Cc1cc(/C=C(\C#N)C(=O)O)c(C)n1-c1ccc(Br)cc1	8.5	3.3	-2.5	-1.1	1.4	-6.8	i	-8.3
O=C(OCc1cc2ccccc2[nH]c1=O)c1cccnc1	-7.3	-2.2	3.5	14.6	3.3	-0.2	i	-32.0
CCCN(CCC)C(=S)NC(=O)c1ccc(-c2ccccc2)cc1	18.1	5.5	37.0	-11.8	3.1	-7.9	i	14.7
Cc1nc2c(C(=O)N3CCCC3)cnn2c(C)c1Cc1c(F)cccc1Cl	-11.1	-1.0	-2.7	/	1.5	-2.0	i	-11.1
CCNC(=O)n1nccc1C(C)Oc1cccc(C(F)(F)F)c1 (stereo not drawn)	-2.4	-14.1	-3.1	-15.7	-0.6	-7.3	i	-28.9
Cc1csc(NC(=O)C(NC(=O)c2ccccc2F)C(C)C)n1 (stereo not drawn)	-6.2	-1.2	-10.4	2.0	1.0	1.8	i	-6.7
Cc1nnc(C)c2c(C)n(N)c(C)c12	-0.4	10.1	-7.6	-0.4	6.5	5.5	i	10.5
CCOCCCNC(=O)c1cc2cc3cc(OC)ccc3nc2o1	-3.5	1.1	8.6	-1.0	4.4	0.3	i	-8.7
CNC(=S)/N=C(/Nc1ccccc1)c1ccccc1	3.2	-14.8	/	/	4.7	-1.0	i	15.5
CCn1c(SCC(=O)Nc2cc(C)on2)nnc1-c1ccc(OC)cc1	-9.0	-5.3	-11.5	/	2.1	-0.9	i	-11.4
CC(C)(Cc1ccc(O)cc1)NC(=O)c1ccccc1	2.4	8.9	-1.0	6.8	3.5	3.1	i	-33.0
Clc1c2c(nc3ccccc13)CCC2	2.9	-6.7	6.3	-15.2	0.9	4.3	i	0.0

Retrieved by compound from the list above, 6 records:
SMILES	eIF4H FP inh	PABP FP inh	CSC inhib	UUG fidelity	MT1-MMP act inh	MT1-MMP act inh RFP	Rce1 inh	HIV Env fusion	others
CCCN(CCC)C(=S)NC(=O)c1ccc(-c2ccccc2)cc1	18.1	5.5	37.0	-11.8	3.1	-7.9	i	14.7
CN(Cc1ccc2nsnc2c1)Cc1nc(Cc2cccc(F)c2)no1	0.3	-4.4	-4.6	/	-4.0	-2.7	i	-12.6
CCNC(=O)n1nccc1C(C)Oc1cccc(C(F)(F)F)c1 (stereo not drawn)	-2.4	-14.1	-3.1	-15.7	-0.6	-7.3	i	-28.9
CNC(=S)/N=C(/Nc1ccccc1)c1ccccc1	3.2	-14.8	/	/	4.7	-1.0	i	15.5
O=C(NCc1n[nH]c(=S)n1-c1ccc(Br)cc1)c1cccs1	-3.1	-1.1	-17.9	/	-3.3	2.5	i	4.2
CCCn1nnnc1NCc1ccc(CC)cc1	-3.5	-7.9	-4.8	-17.7	-0.4	0.7	i	-97.3

The results go on:
SMILES	eIF4H FP inh	PABP FP inh	CSC inhib	UUG fidelity	MT1-MMP act inh	MT1-MMP act inh RFP	Rce1 inh	HIV Env fusion	others
CCc1nnc(NC(=O)c2ccc(S(=O)(=O)N3CCCCC3)cc2)s1	0.6	-0.6	-4.6	-25.0	3.0	-3.7	i	-19.9
Cc1cc(C)n(-c2ncc3c(n2)N(C)CCOC3=O)n1	-4.5	-4.3	4.7	/	2.4	4.4	i	3.3
CC1CCCN(S(=O)(=O)CCNC(=O)c2ccccc2)C1 (stereo not drawn)	/	/	3.7	3.3	2.5	3.5	i	-15.3
CC1=C(C(N)=O)C(c2ccc(Cl)cc2Cl)n2ncnc2N1 (stereo not drawn)	-6.0	6.4	-7.4	-16.9	-4.1	1.7	/	7.4
Cc1ccc(Sc2ncnc3onc(C)c23)c(C)c1	-6.2	?	/	/	-7.9	-9.2	/	2.6
COc1cc(CNn2nnnc2N)cc(Br)c1OCc1c(Cl)cccc1Cl	0.7	-0.3	-3.2	-10.5	-0.9	-9.0	i	?
Cc1ccsc1C(=O)OCC(=O)c1cc(C)n(CC2CCCO2)c1C (stereo not drawn)	-2.1	12.0	13.7	-79.8	1.4	-1.5	i	-92.3
CCC(CC)C(=O)Nc1cccc(C(=O)Nc2ccc(OC)cc2[N+](=O)[O-])c1	-5.7	-3.6	14.6	-3.3	5.1	-1.7	i	-27.9
O=C(CN1C(=O)S/C(=C/c2cccn2-c2ccc(O)cc2)C1=O)N1CCCC1	-2.3	0.9	/	10.2	-7.2	-0.8	i	-0.5
CC1(NC(=O)Cc2ccc(S(=O)(=O)N3CCOCC3)s2)CCS(=O)(=O)C1 (stereo not drawn)	/	/	/	-4.9	-4.0	1.0	i	2.8
CCN(CC)CCNC(=O)C(C(=O)c1ccccc1)n1ccccc1=O (stereo not drawn)	-3.5	-9.2	4.4	-23.4	10.0	0.4	i	9.0
CCC1(c2ccccc2)NC(=O)N(CC(=O)NNC(=O)CCN2CCN(c3ccccc3)CC2)C1=O (stereo not drawn)	/	/	-5.0	-18.6	-0.7	1.9	i	12.4
O=C(N/N=C/c1ccco1)c1csc2c1CCCC2	19.0	16.5	-8.5	/	-3.8	-6.1	i	-10.7
C=CCc1cccc2cc(C(=O)N3CCN(c4ccccn4)CC3)c(=O)oc12	-1.7	-1.7	7.2	/	2.7	4.6	i	7.8
